Bioassay records: PubChem, several laboratories
RanGTP-Impb inh: inhibitors of RanGTP-importin-beta interaction, primary screen, biochemical, FRET, CFP-Ran, YFP-importin-beta, homogeneous; 1.1% of 300,000 active; inhibition, % (concentration not given with the values); AID 2216; cell-free CFP-Ran/YFP-importin-beta FRET ratio;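 active = most replicates above 15%; inconclusive = exactly half above 15%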;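 also: 0% = DMSO wells and 100% = Ran loaded with GDP instead of GTP; wells of about 40 µL received 100 nL stock; the first replicate is given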
T cruzi repl: T. cruzi replication inhibition; T. cruzi beta-gal in NIH3T3, luminescence, 90 h; inhibition, % (test concentration not listed); 1.4% of 300,000 active; AID 1885;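 active = mean inhibition across valid replicates above about 55%, limit read from the data; inconclusive = mean below that limit but half or more replicates reach it; inactive = mean below it, under half of replicates reach it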;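 also: signal also drops with host cell toxicity which is not excluded here; 0% = plate median of DMSO wells and 100% = zero luminescence signal; higher percent means less beta-gal luminescence so fewer parasites; stock transfer was 50 nL into about 50 µL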
MLL AF4-AF9 inh: blocks AF4 peptide binding to human AF9; P42568; AlphaScreen, biotin-AF4 peptide binding to FLAG-AF9; 0.47% of 350,000 active; inhibition, % at 10 µM;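 active = every replicate reaching a set inhibition limit, whatever the replicate mean, cut at about 25% in these data; inconclusive = mean inhibition reaches that limit but some replicates miss it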;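 also: 0% = plate neutral control median and 100% = total signal loss; the record names both 10 and 1 µM as test concentration; the first replicate is given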
Bfl-1 A1 inh: inhibitors of the anti-apoptotic protein A1, read as caspase activation; caspase activation, % (concentration not given with the values); 0.066% of 330,000 active; MEF A1-2A-BIM cells, Caspase-Glo 3/7 luminescence, 3 h; percent of clofoctol response, vehicle zero; AID 2462;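 active = over half of replicate activation scores above 10%, or exactly half above 10 with the replicate mean above 10; inconclusive = replicate mean below 10 yet half the replicates above 10; inactive = over half of replicates below 10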;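 also: wells of about 30 µL received 50 nL stock; many hits fall short of the cut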
Beta apoptosis: blocks beta cell apoptosis; protection from apoptosis, % (no concentration beside the values); AID 435005; 0.8% of 300,000 active; INS-1E cytokine-induced death, ATP luminescence, 48 h; percent of positive-control rescue, neutral wells zero;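 active = all replicates at 75% or more, or half of them and the mean; inconclusive = half reach 75% but not the mean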;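 also: 0% = cytokine-treated negative control wells and 100% = positive control rescue; higher means more ATP so stronger rescue from cytokine killing; wells of about 40 µL received 100 nL stock; the first replicate is given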
LANA-H2B inh: blocks KSHV LANA binding to histone H2A/H2B; Q9QR71; cell-free LANA-H2A/H2B peptide, fluorescence polarization; inhibition, % (no concentration beside the values); 0.6% of 320,000 active; in the data active = inhibition mostly above about 10%, no sharp cut-off; inactive = mostly below about 6.7%;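 also: stock transfer was 7.5 nL into about 10 µL; 0% = median of vehicle wells and 100% = median of positive control wells; one replicate is shown; the record names a cut of 25% in any replicate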
Target sequence (Q9QR71 whole entry, looked up): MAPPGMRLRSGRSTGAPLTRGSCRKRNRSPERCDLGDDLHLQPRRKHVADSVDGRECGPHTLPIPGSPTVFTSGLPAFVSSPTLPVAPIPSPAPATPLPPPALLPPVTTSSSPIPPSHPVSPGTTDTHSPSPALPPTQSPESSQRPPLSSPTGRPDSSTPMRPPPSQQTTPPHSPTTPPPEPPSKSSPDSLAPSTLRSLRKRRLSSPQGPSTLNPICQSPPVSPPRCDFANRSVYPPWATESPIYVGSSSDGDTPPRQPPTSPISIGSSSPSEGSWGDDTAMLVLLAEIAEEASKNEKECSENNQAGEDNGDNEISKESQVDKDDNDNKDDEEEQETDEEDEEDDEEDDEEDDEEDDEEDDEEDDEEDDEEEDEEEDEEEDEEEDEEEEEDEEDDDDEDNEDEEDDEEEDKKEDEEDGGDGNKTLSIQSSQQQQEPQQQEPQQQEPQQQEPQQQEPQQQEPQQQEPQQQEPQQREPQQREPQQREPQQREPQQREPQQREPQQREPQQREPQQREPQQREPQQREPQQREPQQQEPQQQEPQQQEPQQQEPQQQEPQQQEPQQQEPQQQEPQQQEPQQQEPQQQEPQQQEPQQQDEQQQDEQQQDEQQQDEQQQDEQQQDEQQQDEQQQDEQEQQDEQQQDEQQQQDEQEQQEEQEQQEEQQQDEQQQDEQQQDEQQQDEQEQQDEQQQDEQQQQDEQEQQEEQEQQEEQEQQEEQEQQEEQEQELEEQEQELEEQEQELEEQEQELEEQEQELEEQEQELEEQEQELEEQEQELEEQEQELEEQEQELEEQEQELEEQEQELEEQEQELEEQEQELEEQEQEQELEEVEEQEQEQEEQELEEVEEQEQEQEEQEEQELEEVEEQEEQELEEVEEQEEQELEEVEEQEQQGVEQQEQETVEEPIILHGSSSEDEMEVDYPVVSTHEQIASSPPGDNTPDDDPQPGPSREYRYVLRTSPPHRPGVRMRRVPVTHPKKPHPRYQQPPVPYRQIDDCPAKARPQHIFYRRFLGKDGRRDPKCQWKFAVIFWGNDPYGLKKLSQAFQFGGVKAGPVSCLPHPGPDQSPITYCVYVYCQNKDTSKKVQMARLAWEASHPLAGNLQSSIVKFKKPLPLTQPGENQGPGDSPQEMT
Vif TR-FRET: inhibitors of Vif binding to APOBEC3G peptide, primary screen, biochemical, TR-FRET, GST-Vif 1-94, biotin-A3G peptide, dose response retest (AID 1117319); TR-FRET GST-Vif / biotin-A3G peptide binding; higher % means a stronger effect; test concentration not given here; strong numbers were not always called active; one-dose inhibition, %; IC50 in µM for titrated hits; 0.57% of 260,000 active;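 active = above the screen mean plus three standard deviations and confirmed in dose response; inconclusive = results disagree or hit not tested in dose response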;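 also: Vif residues 1-94 fused to GST binding biotinylated APOBEC3G peptide 110-148; 0% = full assay without inhibitor and 100% = GST in place of GST-Vif; retest series ran down from 100 µM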
Calb FLC: C. albicans growth modulation with fluconazole. C. albicans CaCi-2 (fluconazole-resistant clinical isolate) + fluconazole, Alamar Blue growth, 48 h. growth inhibition, % (test concentration not listed). 0.57% of 300,000 active;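 active = most replicates above 75%; inconclusive = exactly half above 75%; inactive = most below 75%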;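 also: all wells also contain fluconazole at 8 µg/ml as a sub-toxic cotreatment; 0% = median of DMSO wells and 100% = median of geldanamycin control wells; wells of about 8 µL received 7.5 nL stock; the first replicate is given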
* = called active by the depositor; i = inactive; ? = inconclusive; / = no result given; & = joins results of further samples.

SMILES	RanGTP-Impb inh	T cruzi repl	MLL AF4-AF9 inh	Bfl-1 A1 inh	Beta apoptosis	LANA-H2B inh	Vif TR-FRET	Calb FLC
CCCCc1c(C)nn(-c2nnc3c4ccccc4n(C)c3n2)c1C	1.4	39	/	-0.5	28	1.4	-5%	-8
CCC1(CC)C(=O)NC(=O)NC1=Nc1ccccc1	-0.2	-7	-1.0	0.0	2	-7.5	?	?
Clc1ccc(CN2C3=NCCCN3c3ccccc32)cc1Cl	5.1	25	2.2	0.9	6	-2.9	24%	31
CCN(CC)S(=O)(=O)c1ccc(OC)c(NC(=O)c2ccc(-n3cncn3)c([N+](=O)[O-])c2)c1	1.9	3	-1.1	0.2	/	-1.0	0%	-6
CNS(=O)(=O)c1cccc(C(=O)OCC(=O)/C=C2/N(C)c3ccccc3C2(C)C)c1	0.3	1	-13	-0.9	/	3.2	6%	2
O=C(CSc1nncn1-c1ccccc1)c1c[nH]c2ccccc12	4.5	-11	0.9	-0.3	/	-6.0	-12%	14
COc1ccccc1N=NC1=C(O)CC(C)(C)CC1=O	3.4	-8	7.0	-0.2	-4	-4.7	1%	?
CCCN1C(=O)C2(SC(NC(C)=O)=NN2C(C)=O)c2cc(C)ccc21 (stereo not given)	-0.1	-2	-3.1	-0.2	-7	8.0	-2%	0
CCOCCCNC(=O)c1c(N)n(-c2ccc3c(c2)OCO3)c2nc3ccccc3nc12	133*	24	/	0.2	/	0.9	4%	1
Cc1cc(C)c(NC(=O)c2ccc[n+](Cc3ccc([N+](=O)[O-])cc3)c2)c(C)c1	-0.7	1	/	2.6	-2	-1.4	16%	-8
Cc1cc(C)nc(Nc2n[nH]c(-c3ccc(N)cc3)n2)n1	1.3	-11	/	2.3	-3	1.1	2%	-5
O=c1[nH][nH]c(-c2ccccc2O)c1C(C[N+](=O)[O-])c1ccccc1 (stereo not given)	1.5	-20	/	0.4	3	-2.4	29%	21

Single values from the list.
Under Vif TR-FRET, O=C(CSc1nncn1-c1ccccc1)c1c[nH]c2ccccc12 is entered as -12%
Under MLL AF4-AF9 inh, Clc1ccc(CN2C3=NCCCN3c3ccccc32)cc1Cl is entered as 2.2

More records:
SMILES	RanGTP-Impb inh	T cruzi repl	MLL AF4-AF9 inh	Bfl-1 A1 inh	Beta apoptosis	LANA-H2B inh	Vif TR-FRET	Calb FLC
OC(CNCC1CCCO1)Cn1c2ccc(Cl)cc2c2cc(Cl)ccc21 (stereo not given)	-5.3	39	/	1.8	/	1.0	-5%	69
Cc1ccc(-c2nnc(SCC(=O)N/N=C/c3ccc(C)s3)n2-c2ccc(C)cc2)cc1	?	16	/	0.0	3	3.2	/	-5
CC1(C)CC(=O)C(C(C2=C(O)CC(C)(C)CC2=O)c2ccco2)C(=O)C1 (stereo not given)	-1.9	-8	/	-1.0	/	-1.7	5%	10
Cc1ccc(C(=O)NC2CCN(C(=O)Nc3ccccc3Cl)CC2)cc1	1.7	8	-3.7	-0.3	4	-0.5	-3%	2
COc1cc(CC(C#N)(CO)c2nc3ccccc3[nH]2)ccc1OC(F)F (stereo not given)	-0.2	0	-0.5	-0.6	-9	0.2	/	2
CSc1ccc(Cl)c(C(=O)N2CCOc3ccccc32)c1	-4.3	-4	-2.2	0.8	-3	5.0	/	-18
COC(=O)CSc1nc2c(c(=O)[nH]c(=O)n2C)n1CCC(C)C	?	-13	/	0.2	7	3.1	11%	-1
CCn1ncc(S(=O)(=O)NCc2ccco2)c1C	6.2	-5	-2.5	0.3	-2	6.2	0%	-2
Cc1nn(S(=O)(=O)c2ccccc2)c(C)c1S(=O)(=O)N1CCC(C)CC1	-0.5	-35	0.2	0.4	/	-0.2	2%	-8
CCn1c2ccccc2c2nnc(SCc3ccccc3)nc21	-0.4	26	2.6	-0.4	7	2.0	15%	-3
CCCCn1nc2cc(C(=O)NCc3cc(C(F)(F)F)cc(C(F)(F)F)c3)ccc2c1OC	?	39	0.1	0.5	5	3.4	-3%	-1
CCOc1ccc(NC(=O)C2CC(=O)N(c3ccccc3F)C2)cc1 (stereo not given)	-0.5	8	1.0	-0.3	0	3.7	/	-8
CC(C(=O)Nc1nc(-c2ccc(F)cc2)cs1)N1C(=O)C2CC=CCC2C1=O (stereo not given)	/	/	10	-0.5	3	-5.4	-8%	/
CN1CCN(C(CNC(=O)C(=O)Nc2ccc3c(c2)OCCO3)c2ccc(F)cc2)CC1 (stereo not given)	1.8	62*	1.0	0.5	-1	7.6	-2%	8
C[C@H](CO)N1C[C@H](C)[C@@H](CN(C)C(=O)NC2CCCCC2)Oc2c(NC(=O)Nc3ccc4c(c3)OCO4)cccc2C1=O	/	/	1.9&-0.7	-0.2	-3	i	-6%	/
Cc1cc(C(C)(C)C)cc(S(=O)(=O)NCC(=O)O)c1C	0.8	-8	/	0.6	3	-2.3	4%	-5
O=C(O)c1cc(-c2ccco2)nn1-c1ccc(Cl)cc1	6.3	-1	1.7	/	/	/	?	-3
CCC(C(=O)NCCN1CCN(C)CC1)n1c(C)c2cnn(-c3ccccc3)c(=O)c2c1C (stereo not given)	1.0	/	/	1.9	-2	-1.3	9%	-2
Nc1nnc(CCC2CCCCC2)s1	0.0	-14	/	0.0	-11	-0.5	-5%	1
Cc1ccc(C(=O)OCC(=O)Nc2cc(S(C)(=O)=O)ccc2Cl)cc1S(=O)(=O)N1CCCCC1	4.8	5	-0.7	0.2	-2	13	/	1
COc1cccc(N(CC(=O)NC2CCCC2)C(=O)Cn2nnc(-c3ccc(C)cc3)n2)c1	0.8	14	/	0.8	-10	1.8	10%	-33
O=C1CCCCCN1CP(=O)(O)CN1CCCCCC1=O	-0.8	-8	1.6	-0.2	2	13	7%	-5
CC(CCN1C(Nc2ccccc2)=NC[C@@H]1C)c1ccccc1 (stereo not given in full)	-1.5	14	1.0	0.2	5	1.2	/	-5
CCS(=O)(=O)c1ccc2oc(SCC(=O)NCCc3ccccc3)nc2c1	-3.7	4	-3.2	1.6	0	1.1	3%	4
COc1ccc(S(=O)CC(=O)Nc2ccc(Cl)cc2Cl)cc1 (stereo not given)	-4.5	10	2.7	-0.7	4	0.3	5%	-4
CC1CCN(S(=O)(=O)c2ccc(S(=O)(=O)NCC3COCCO3)cc2)CC1 (stereo not given)	2.2	-1	-12	0.0	8	2.6	8%	-9
COc1cc(C(=O)NC(C)c2ccc(-n3ccnc3)cc2)cc(OC)c1C (stereo not given)	-3.2	2	7.2	0.2	0	-5.0	/	-4
COc1cccc(COc2cc3ccccc3nc2C)c1	-1.1	-28	/	-1.4	98*	-4.5	32%	100*
CCOC(=O)c1[nH]c(CSc2nnc(-c3ccc(OC)cc3)o2)c(C(=O)OCC)c1C	1.6	12	/	0.0	3	-3.8	-3%	-1
O=c1c2cc(N3CCOCC3)ccc2[nH]c(=S)n1CCCN1CCCC1	-4.4	19	/	0.2	-1	-2.7	1%	4
CCOc1ccc(NC(=O)C2CC=CCC2C(=O)O)cc1 (stereo not given)	?	-14	/	-0.6	-2	1.0	17%	-8
CCOC(=O)N1CCN(C(=O)COc2ccccc2OC)CC1	0.8	-11	/	0.5	-1	-3.3	-1%	-17
COc1ccc(-n2c(Cc3cccn3C)nnc2SCC(=O)Nc2cccc(C)c2C)cc1	-3.5	4	6.7	1.5	1	-0.6	5%&1%	-4
Fc1ccc(CN2C3=NCCN3c3ccccc32)cc1	-0.5	-2	-1.6	-0.1	5	-1.5	-7%	2
Cc1cccc(NC(=O)COc2ccc(Br)cc2/C=N/O)c1	3.6	2	0.0	-0.1	-15	-1.4	1%	44
O=C(CN1CCCC1)Nc1c(Cl)cccc1Cl	-0.9	-14	-1.9	-0.8	-7	3.1	/	-7
O=C(COC(=O)c1cc([N+](=O)[O-])ccc1NCc1ccccc1Cl)NCC(F)(F)F	?	-3	/	0.6	-2	3.1	4%	-5
CN(CCc1ccccn1)C(=O)CCC1CCCN(C(=O)c2cccc(N(C)C)c2)C1 (stereo not given)	1.0	-4	0.9	-0.2	1	-4.5	/	-4
O=C(O)c1ccccc1/C=N/Nc1nc(N2CCCCC2)nc(N2CCCCC2)n1	2.8	-5	-1.6	1.3	1	2.9	-8%	-23
C=CCC[C@@H](Cc1ccc(F)cc1)C(=O)OC[C@@H]1CCCN1C(=O)[C@@H](CC=C)CC(=O)N[C@@H](CO)Cc1ccccc1	/	/	-1.0	-0.3	1	0.2	/	/
CN(C)S(=O)(=O)c1ccc(C(=O)Oc2cc(=O)[nH]c3ccccc23)cc1	5.2	-4	/	-0.2	1	-1.0	2%	1
O=C(Nc1c2c(nn1-c1ccc(F)cc1)CS(=O)C2)c1ccco1 (stereo not given)	-0.8	2	0.7	-0.6	-4	3.0	/	-1
N#Cc1c2ccccc2nc2ccccc12	18*	1	/	0.0	16	1.2	-9%	-4
O=C(O)c1ccc(CSc2nnc(Cc3ccccc3)o2)cc1	6.8	-14	/	0.1	-4	2.6	0%	1
CC(CC(=O)O)CC(=O)Nc1cc(C(F)(F)F)cc(C(F)(F)F)c1 (stereo not given)	2.3	-5	-1.5	0.7	0	2.8	20%	-1
COc1ccc(NC(=O)N(C)C[C@H]2Oc3ccc(NC(=O)Nc4c(C)noc4C)cc3C(=O)N([C@H](C)CO)C[C@@H]2C)cc1	/	/	-4.4&-6.9	0.1	-4	2.2	5%	/
COc1ccc(CCN2CC(C(=O)N(C)Cc3ccc4nsnc4c3)CCC2=O)cc1 (stereo not given)	2.0	3	0.8	-0.4	-2	-0.1	/	-3
COc1ccc(/C=N/Nc2cc(OC)ncn2)cc1	7.3	-21	3.0	-8.9	-4	-6.3	/	11
O=C1/C(=N\S(=O)(=O)c2cccs2)C([n+]2ccc(CCCc3ccccc3)cc2)=C([O-])c2ccccc21	0.6	28	1.4	-0.6	104*	0.6	4%	-4
Cc1cc(C)n2cc(CSc3nncn3C)nc2n1	0.8	-5	-4.7	0.1	-6	-1.0	0%	8
CNC(=S)N1C2CCCC1CC(NC(=O)c1ccc(F)cc1)C2 (stereo not given)	2.0	-1	0.1	-0.1	-1	-0.3	/	2
CCN(CC)C(NC(=O)c1ccccc1)C(=O)c1ccccc1 (stereo not given)	0.0	-7	/	-0.1	-5	3.1	-2%	4
CCc1c(O)nc(SCc2ccccc2)n(C(C)CC)c1=O (stereo not given)	-2.0	-15	-77	0.1	-3	-2.9	0%	16
COc1ccccc1N1CCN(C2CCCN(C(=O)c3ccnc4ccc(C)cc34)C2)CC1 (stereo not given)	?	2	-0.1	-0.4	-6	-5.1	/	22
COc1ccc(-c2cc(C(=O)Nc3c(C)nn(Cc4ccccc4Cl)c3C)no2)cc1	-1.4	9	/	0.2	-13	11	7%	-1
COc1ccc(C(=O)Nc2ccc(S(=O)(=O)NCc3ccco3)cc2)cc1OC	-2.3	-3	/	-0.5	0	-0.9	-1%	-9
CCC(=O)c1ccc(OCC(=O)Nc2nc(-c3cccnc3)cs2)cc1	4.7	-3	-10	0.2	3	-0.2	-4%	5
